# Bioassay records deposited in PubChem BioAssay by National Center for Advancing Translational Sciences (NCATS).
# SARS PLpro yeast = blocks SARS-CoV papain-like protease in a yeast assay; S. cerevisiae expressing SARS-CoV PLpro, growth rescue; control for the full effect not named in the record; Potency, µM (doses to about 32.9 µM), without a hit: top-dose activity, positive = growth rescue; 330,000 tested, 0.19% active; active means well fitted rising curve with a large enough effect; inconclusive means small, poorly fitted or top-dose-only effect; inactive means no such curve, though single readings can be large or run the other way; further: 0% is about no effect; nearly all actives have a fitted effect of over 55% in size; growth read by luminescence after 48 h
# Lassa entry inh = Lassa virus entry inhibition; Lassa virus pseudotype entry inhibition, cell reporter; control for the full effect not named in the record; Potency, µM (titrated, usually from 37.9 µM), for the others: top-dose activity change, negative = inhibition, hits mostly inhibitors; 300,000 tested, 1.2% active; AID 540256; active means well fitted inhibition curve with a large enough effect; inconclusive means small, poorly fitted or top-dose-only effect, or effect the other way; inactive means flat fitted curve, though single readings scatter; tested in HEK293 cells; further: on the % scale 0 is the no-effect control and ±100 the full control effect; nearly all actives have a fitted effect of over 50% in size; luciferase read-out
# NS1 inh = influenza NS1 inhibition | 270,000 tested, 0.4% active | S. cerevisiae slowed by influenza A NS1, growth recovery by OD600 | Potency, µM (series often up to 46.1 µM), for inactives: at the top dose activity, positive = more growth; active means well fitted rising curve with a large enough effect; inconclusive means small, poorly fitted or top-dose-only effect; inactive means no such curve, though single readings can be large or run the other way; further: nearly all actives have a fitted effect of over 50% in size
#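 In this qHTS, NS1 from influenza A is expressed in budding yeast, where it slows growth. Cells are switched from glucose to 2% galactose medium (pH 6.0, -URA), treated with compound, and growth recovery is read at OD600.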
# RE007 growth inh = less growth of the S. pombe RE007 Vpr strain | S. pombe RE007 Vpr strain, BacTiter-Glo ATP luminescence, 24 h; control for the full effect not named in the record | Potency, µM (doses to about 92.2 µM), for the others: top-dose activity change, negative = less growth | 360,000 tested, 0.21% active | AID 651644; active = well fitted falling curve with a large enough effect; inconclusive = small, poorly fitted or top-dose-only effect; inactive = no such curve, though single readings can be large or run the other way;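 further: on the % scale 0 is the no-effect control and ±100 the full control effect; nearly all actives have a fitted effect of over 50% in size; the assay follows cell death caused by Vpr and the record does not say whether a fall means rescue or toxicity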
#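 Fission yeast RE007 carrying one integrated HIV-1 vpr copy, seeded at OD 0.01 in PMG+AL medium with 23 nL pinned compound. Grown 24 h at 30 degrees; viability read by BacTiter-Glo luminescence after 5 min.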
# 2A StopGo = FMDV 2A StopGo reporter, luciferase signal | human cells with a luciferase reporter of 2A StopGo recoding; control for the full effect not named in the record | Potency, µM (series often up to 57.9 µM), inactives show at the highest dose signal change, negative = less light | 410,000 tested, 1.2% active | AID 1159524; active = well fitted falling curve with a large enough effect; inconclusive = small, poorly fitted or top-dose-only effect; inactive = no such curve, though single readings can be large or run the other way; tested in HEK293T cells; further: on the % scale 0 is the no-effect control and ±100 the full control effect; nearly all actives have a fitted effect of over 45% in size; luciferase light after 4 h
# Cruzain inh noDet = inhibitors of Trypanosoma cruzi cruzain without detergent | Potency, µM, without a hit: max response, negative = inhibition, actives largely listed as inhibitors | purified cruzain, Z-FR-AMC fluorescence, no detergent | 200,000 tested, 2.3% active;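 further: plate controls were enzyme without inhibitor for no effect and buffer without enzyme for full effect; nearly all actives have a fitted effect of over 40% in size; top concentration of the series not given in the record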
# Target sequence (P25779 123-467 limits assumed): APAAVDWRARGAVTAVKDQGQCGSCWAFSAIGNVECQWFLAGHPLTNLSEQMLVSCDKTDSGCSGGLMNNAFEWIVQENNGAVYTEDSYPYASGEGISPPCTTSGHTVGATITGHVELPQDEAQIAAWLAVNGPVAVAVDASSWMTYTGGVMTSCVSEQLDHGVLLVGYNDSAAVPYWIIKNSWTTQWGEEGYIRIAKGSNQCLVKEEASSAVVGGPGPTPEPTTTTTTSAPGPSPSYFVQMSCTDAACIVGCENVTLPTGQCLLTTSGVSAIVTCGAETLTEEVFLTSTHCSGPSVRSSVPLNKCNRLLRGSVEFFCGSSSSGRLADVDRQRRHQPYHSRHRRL
#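 Purified cruzain at 1.5 nM, pre-incubated 15 min with compound at room temperature in 100 mM sodium acetate pH 5.5, 5 mM DTT, 0.00005% Triton X-100. Reaction started with 2 uM Z-FR-AMC; AMC fluorescence increase over 60 s gives rate.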
# Cruzain Triton = blocks cruzain activity in presence of Triton detergent | Potency, µM, without a hit: max response, negative = inhibition, hits mostly inhibitors | P25779 | purified cruzain, Z-FR-AMC fluorescence, 0.01% Triton | 200,000 tested, 0.43% active;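 further: plate controls were neutral wells for no effect and buffer without enzyme for full effect; nearly all actives have a fitted effect of over 40% in size; top concentration of the series not given in the record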
#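 Steps: dispense cruzain (1.5 nM final) in acetate buffer pH 5.5 with DTT and 0.01% Triton X-100; pin-transfer compounds; incubate 15 min RT; add Z-FR-AMC (2 uM final); read fluorescence every 30 s, using the 60 s intensity change.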
# Marburg entry inh = inhibitors of Marburg virus binding or cell entry; Marburg virus pseudotyped entry inhibition, cell reporter; control for the full effect not named in the record; about a third of the inactives were read at about 46 µM; Potency, µM (series often up to 37.8 µM), for inactives: at the top dose activity change, negative = inhibition, most hits filed as inhibitors; 300,000 tested, 1.8% active; AID 540276; active = well fitted inhibition curve with a large enough effect; inconclusive = small, poorly fitted or top-dose-only effect, or effect the other way; inactive = flat fitted curve, though single readings scatter; tested in HEK293 cells; about a fifth of its hits are not listed in these tables; further: on the % scale 0 is the no-effect control and ±100 the full control effect; luciferase read-out
# * = called active by the depositor; u = inconclusive; x = no result given; [ ] = dose if it differs, or a comment. Unless noted, the call rests on the fitted dose curve; in most records, active means well fitted curve in the direction sought with a large enough effect; inconclusive means small, poorly fitted or top-dose-only effect, or another doubt; inactive means no such curve, though single readings can be large; an effect the other way counts as inactive or inconclusive. Potency means the concentration at half of the fitted maximal effect. Random draw from the library (roughly 4.8% active in at least one column).
SMILES,SARS PLpro yeast,Lassa entry inh,NS1 inh,RE007 growth inh,2A StopGo,Cruzain inh noDet,Cruzain Triton,Marburg entry inh
O=C(Nc1ccc2c(c1)nc1n2CCCCC1)c1cc(S(=O)(=O)N2CCOCC2)ccc1Cl,-0.7%,u,-47.2%,-16.3%,25.1µM*,-1.8%,2.1%,u
Cc1[nH]n(-c2ccc(Cl)cc2)c(=O)c1C=NC12CN3CN(CN(C3)C1)C2,-25.2%,1.5%,5.5%,u,-7.6%,-7.0%,-3.6%,14.3%
CCOC(=O)C1CCN(C(=O)Cn2cnc3sc(C)c(S(=O)(=O)N4CCCCC4)c3c2=O)CC1,0.8%,-5.3%,-9.9%,-18.3%,-1.4%,x,x,-2.7%[46.1 µM]
CCn1cc(C(=O)Nc2ccc(Cl)cc2Cl)cn1,x,-8.1%[46.1 µM],x,-5.1%,19.7%,x,x,1.3%[46.1 µM]
O=C(OCc1cccc(Cl)c1)c1cc([N+](=O)[O-])ccc1N1CCOCC1,-6.2%,u,x,1.2%,u,x,x,u
Cc1ccc(-c2nc(CN3CCN(C(=O)C4CCCO4)CC3)cs2)cc1 (stereo not given),1.3%,u,13.1%,-23.2%,u,x,x,17.8µM*
CCNC(=O)C(=O)N1CCC2(CC1)OCCN2S(=O)(=O)c1ccc(C)cc1,3.7%,-5.6%,x,-5.4%,-5.6%,x,x,-9.9%
CCC(=O)Oc1ccc(C(=O)Nc2ccc3c(c2)OCO3)cc1,-2.8%,u,1.4%,-26.9%,-1.0%,x,x,u
COc1ccccc1NC(=O)CCCN1C(=O)C(c2ccccc2)Oc2cccnc21 (stereo not given),-2.8%,x,2.9%,1.3%,-5.6%,x,x,x
Cc1cc(=O)[nH]c(N/N=C/c2cc(C)n(-c3ccccc3)c2C)n1,0.5%,u,10.5%,4.3%,u,x,x,u
Cc1cccn2c(=O)c(C(=O)N3CCN(c4ccccc4)CC3)cnc12,x,-6.0%[46.1 µM],x,x,7.7%,-13.4%,-5.2%,x
O=c1[nH]c(=O)n(CCC2=CCCCC2)c(O)c1C=NCc1cccnc1,-2.0%,1.5%,0.6%,-10.7%,3.5%,3.5%,1.5%,u
C=CCN(c1ccccc1)S(=O)(=O)c1ccc2[nH]cc(C(=O)NCCOC)c(=O)c2c1,2.3%,x,u,-5.8%,-22.7%,x,x,x
Cc1c(Br)c(=O)oc2c(Br)c(O)ccc12,1.9%,9.9%,x,1.5%,-6.9%,x,x,-0.5%
Cc1ccc(Cl)cc1N1CCN(C(=O)C2CCN(S(=O)(=O)c3c(C)noc3/C=C/c3ccccc3F)CC2)CC1,x,11.1%[46.1 µM],x,x,-20.9%,6.31µM*,-2.1%,x
Cc1ccc(Oc2ncnc3sccc23)cc1,19.8%,u,11.4%,-1.8%,26.0%,-8.2%,-1.7%,u
Cc1cccc(OCCC(=O)OCC(=O)N2CCc3ccccc32)c1,-5.6%,12.9%,-55.9%,-19.8%,-4.8%,2.8%,1.3%,u
COc1cc(C2CC(=O)c3c([nH]c(C(=O)OCc4ccc(C)cc4)c3C)C2)cc(OC)c1OC (stereo not given),x,-12.0%[46.1 µM],x,x,14.1µM*,11.7%,-3.9%,u
Cc1ccc(S(=O)(=O)Nc2ccc3c4c(cccc24)CC3)c(C)c1,x,-21.9%,x,-7.2%,30.8%[activator],x,x,u
Cc1ccn(C(CC(=O)c2ccc(Br)cc2)C(=O)O)n1 (stereo not given),-3.4%,18.6%,-2.3%,-1.4%,x,5.5%,3.0%,25.9%

# Some of these compounds in order of count of non-hydrogen atoms, high to low:
SMILES,SARS PLpro yeast,Lassa entry inh,NS1 inh,RE007 growth inh,2A StopGo,Cruzain inh noDet,Cruzain Triton,Marburg entry inh
C=CCN(c1ccccc1)S(=O)(=O)c1ccc2[nH]cc(C(=O)NCCOC)c(=O)c2c1,2.3%,x,u,-5.8%,-22.7%,x,x,x
Cc1ccn(C(CC(=O)c2ccc(Br)cc2)C(=O)O)n1 (stereo not given),-3.4%,18.6%,-2.3%,-1.4%,x,5.5%,3.0%,25.9%
Cc1ccc(Oc2ncnc3sccc23)cc1,19.8%,u,11.4%,-1.8%,26.0%,-8.2%,-1.7%,u

# Next part
SMILES,SARS PLpro yeast,Lassa entry inh,NS1 inh,RE007 growth inh,2A StopGo,Cruzain inh noDet,Cruzain Triton,Marburg entry inh
Cc1ccc(NC(=S)Nc2cccc(S(=O)(=O)Nc3c(C)n(C)n(-c4ccccc4)c3=O)c2)cc1,0.3%,u,x,-5.9%,25.6%,x,x,u
Cc1cc([N+](=O)[O-])nn1CC(=O)N1CCOCC1,-0.2%,18.5%,x,10.9%,-6.1%,x,x,12.5%[46.1 µM]
COc1ccc(NC(=S)Nc2ccc3nsnc3c2)cc1,-10.3%,19.9%,-9.7%,-14.8%,27.7%,-5.7%,-9.7%,u
COc1cccc(NC(=O)CC2Nc3cc(C)c(C)cc3NC2=O)c1 (stereo not given),x,5.9%[46.1 µM],x,x,23.4%,-12.2%,-7.3%,27.5%[46.1 µM]
COc1ccccc1NC(=O)COc1ccc(/C=N/NC(=O)c2cccnc2)cc1,1.0%,x,-4.5%,-6.8%,0.0%,x,x,x
COc1ccc(-c2cc3nc(C4CCN(C(=O)OC(C)(C)C)CC4)c(C(=O)O)cn3n2)cc1,8.7%,11.6%,13.8%,-7.1%,u,u,-12.2%,4.0%
CC1(C)C(CSc2nc3ccccc3[nH]2)C1(Cl)Cl (stereo not given),-21.4%,u,x,-28.4%,-0.2%,x,x,u
C#CCOCCOCCOCCNc1nc(N2CCN(C(=O)[C@H]([C@@H](C)CC)n3cc([C@@H](N)CC(C)C)nn3)CC2)nc(N2CCN(C(=O)[C@H](Cc3cc4ccccc4[nH]3)n3cc([C@@H](N)Cc4ccc(O)cc4)nn3)CC2)n1,-1.2%,x,5.9%,24.6%,-5.6%,x,x,x
CCS(=O)(=O)c1nc(S(=O)(=O)c2ccc(C)cc2)c(NC(C)c2ccccc2)s1 (stereo not given),x,u,x,x,35.6%[activator],-3.2%,-0.9%,u
Cc1cc(NC(=O)CSc2cn(C)c3ccccc23)no1,-10.4%,x,-45.9%,-5.6%,0.0%,-9.5%,-2.9%,x
CC(C)c1ccc2c(c1)C(=O)NC(C)(C)C2,-10.9%,x,-4.4%,-15.3%,16.1%,-3.1%,1.0%,-1.4%
OC1(C(F)(F)F)CC(c2ccc3ccccc3c2)=NO1 (stereo not given),-1.2%,-1.2%,-3.1%,-3.7%,0.0%,x,x,u
CCn1c2ccccc2c2nnc(SCC(=O)O)nc21,x,u,x,x,-12.5%,-16.6%,-7.7%,x
C=CCNC(=O)C1CC(=O)N(c2ccc(OCc3ccc(F)cc3)cc2)C1 (stereo not given),-2.6%,x,5.6%,-1.6%,54.5%[activator],x,x,x
COc1ccc(S(=O)(=O)N(CC(=O)NCCCN(C)C)c2ccc(C)cc2)cc1OC,8.8%,16.1%,0.1%,-3.6%,6.5%,-6.8%,3.3%,9.1%
O=C(C(NS(=O)(=O)c1cccc2nsnc12)c1ccccc1)N1CCN(c2ccccc2)CC1 (stereo not given),3.9%,x,u,3.7%,-15.2%,u,-3.9%,-2.0%
Cc1cc2cc(CN(Cc3cccs3)C(=S)NCC3CCCO3)c(=O)[nH]c2cc1C (stereo not given),1.1%,u,u,-12.7%,-7.5%,10.5%,-5.1%,u
Cc1cc(C)n2nc(S(=O)(=O)NC(C)(C)C)nc2n1,4.1%,-0.3%,x,5.0%,1.2%,x,x,-1.6%[46.1 µM]
CC1(C)C2(C#N)C(=O)NC(=O)C12C#N (stereo not given),x,1.6%[46.1 µM],x,-2.6%,-3.4%,x,x,-0.9%[46.1 µM]
Cc1ccc2[nH]c(CNC(=O)c3ccc(F)cc3)cc2c1,3.4%,-2.2%,20.3%,1.2%,47.8%[activator],x,x,-19.9%
CC(C)(C)c1ccc(C2Sc3ccccc3NC3=C2C(=O)c2ccccc23)cc1 (stereo not given),x,u,x,x,u,7.94µM*,-3.3%,x
CCOc1ccc(N2C(=O)CC(NCCNc3ccc([N+](=O)[O-])cn3)C2=O)cc1 (stereo not given),-5.3%,u,9.6%,-18.8%,-21.2%,x,x,u
Nc1nc(CSc2nc3ccccc3s2)nc(N2CCCCC2)n1,15.8%,u,-8.3%,18.4%,-21.1%,-7.7%,-3.3%,-13.0%
CC(NC(=O)CSc1n[nH]c(-c2ccccc2Cl)n1)c1nc2ccccc2[nH]1 (stereo not given),x,6.9%[46.1 µM],x,x,-12.4%,-0.5%,0.8%,x
Cc1ccnc(NC(=O)CCC(=O)N(CC(=O)NC2CCCCC2)C2CCCC2)c1,0.3%,x,1.7%,10.0%,-14.6%,x,x,x
C=C(C)COc1ccc2c(C)c(C)c(=O)oc2c1OCC(=C)C,-0.7%,u,-51.2%,-16.2%,-13.9%,2.0%,-0.4%,u
c1ccc(CNc2ncnc3c2cnn3-c2ccccc2)cc1,-4.3%,-19.0%,-6.0%,-1.7%,58.1%[activator],-1.5%,-0.2%,-28.3%
CC(C)Sc1nc2ccccc2n1CC(=O)O,0.1%,13.2%,11.1%,2.1%,-12.8%,x,x,u

# Entries from the list above that contain a thiophene ring, fused or not:
SMILES,SARS PLpro yeast,Lassa entry inh,NS1 inh,RE007 growth inh,2A StopGo,Cruzain inh noDet,Cruzain Triton,Marburg entry inh
CCOC(=O)C1CCN(C(=O)Cn2cnc3sc(C)c(S(=O)(=O)N4CCCCC4)c3c2=O)CC1,0.8%,-5.3%,-9.9%,-18.3%,-1.4%,x,x,-2.7%[46.1 µM]
Cc1ccc(Oc2ncnc3sccc23)cc1,19.8%,u,11.4%,-1.8%,26.0%,-8.2%,-1.7%,u
Cc1cc2cc(CN(Cc3cccs3)C(=S)NCC3CCCO3)c(=O)[nH]c2cc1C (stereo not given),1.1%,u,u,-12.7%,-7.5%,10.5%,-5.1%,u
